HIV Env fusion – inhibitors of HIV-1 Env-driven cell-cell fusion, primary screen, HeLa-JRFL effector, CEM21 target cells, luciferase | AID 651610, 2012 | inhibition, % at 12.3 µM | actives 1.1% (n = 360,000);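 active = mean replicate inhibition score of at least 50 and every replicate individually at or above 50; inconclusive = only one of the two criteria met; inactive = mean below 50 and not all replicates reaching 50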;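 note: 0% = plate neutral controls and 100% = maraviroc near 300 nM; one replicate is shown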
UUG fidelity – modulators of yeast start codon fidelity, primary screen, whole organism, S. cerevisiae, single point, plate reader | actives 0.13% (n = 350,000) | S. cerevisiae UUG-firefly luciferase reporter, luminescence/redox ratio | AID 602363, 2012 | activity score, % at 18.7 µM;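 active = replicate mean at a twofold rise or more, about +100% in these data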;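 note: firefly luciferase made from a UUG start codon reports start codon fidelity; reporter light over untreated wells divided by growth signal over untreated wells; some hits fall short of that in this replicate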
eIF4H inh – human eIF4H binding inhibitors, primary screen, translation initiation inhibitor project, biochemical, uHTS, fluorescence polarization. eIF4H fluorescence polarization binding assay. inhibition, % at 35 µM. actives 0.94% (n = 290,000);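 active = 50% or more with normal probe brightness, or confirmed in later tests; inconclusive = above 50% with abnormal brightness, or retests that disagree; inactive = below 50% or failed in later tests; about a fifth of its hits are not listed in these tables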;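 note: calls also rest on retests at 20 µM and on dose response follow-up; 0% = protein and probe with vehicle and 100% = probe without protein; strong numbers were not always called active; many hits fall short of the cut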
PABP FP inh – PABP poly(A) RNA binding inhibitors, primary screen, biochemical, fluorescence polarization, uHTS. actives 1% (n = 290,000). AID 2014, 2009. Polyadenylate-binding protein 1 (Homo sapiens), P11940. inhibition, % at 35 µM;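 active = 50% or more with normal probe brightness, or confirmed in later tests; inconclusive = above 50% with abnormal brightness, or retests that disagree; inactive = below 50% or failed in later tests; about a fifth of its hits are not listed in these tables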;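 note: calls also rest on retests at 20 µM and on dose response follow-up; controls were probe without protein and protein plus probe with vehicle; some compounds called inactive have numbers as strong as hits; many hits fall short of the cut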
Target sequence (P11940 whole entry, looked up): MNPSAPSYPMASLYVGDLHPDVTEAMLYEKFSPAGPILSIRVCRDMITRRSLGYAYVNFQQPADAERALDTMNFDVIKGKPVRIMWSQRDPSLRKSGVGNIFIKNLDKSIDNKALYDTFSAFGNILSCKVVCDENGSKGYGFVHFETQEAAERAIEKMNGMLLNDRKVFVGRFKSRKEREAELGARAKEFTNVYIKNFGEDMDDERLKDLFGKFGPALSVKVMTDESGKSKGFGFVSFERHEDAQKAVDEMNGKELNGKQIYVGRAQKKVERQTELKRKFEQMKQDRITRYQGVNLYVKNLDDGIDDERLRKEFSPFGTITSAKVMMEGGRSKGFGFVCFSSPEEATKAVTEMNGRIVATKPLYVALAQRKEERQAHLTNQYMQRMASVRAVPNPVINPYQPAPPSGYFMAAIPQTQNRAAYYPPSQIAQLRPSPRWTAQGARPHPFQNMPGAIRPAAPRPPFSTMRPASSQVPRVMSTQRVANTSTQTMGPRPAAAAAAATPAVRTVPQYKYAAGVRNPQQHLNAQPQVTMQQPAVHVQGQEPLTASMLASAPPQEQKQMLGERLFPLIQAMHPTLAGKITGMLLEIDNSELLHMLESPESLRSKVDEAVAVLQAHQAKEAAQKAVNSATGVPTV
Rce1 inhib – yeast Rce1p protease inhibitors, primary screen, biochemical, fluorescence, cell-free homogeneous. CAAX prenyl protease 2 (Saccharomyces cerevisiae (strain ATCC 204508 / S288c)), Q03530. yeast membranes, quenched prenylated peptide cleavage fluorescence. calls only. actives 0.27% (n = 290,000). AID 2563, 2010;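 active = fall in fluorescence gain of 50% or more versus controls, with final raw signal at or below 3038400; inconclusive = same 50% fall but final raw signal above 3038400; inactive = fall in fluorescence gain under 50%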;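 note: plate controls were neutral control wells for no effect and wells lacking membranes for full effect; tested at 10 µM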
MT1-MMP act inh – blockers of MT1-MMP proenzyme processing, primary screen, HT1080 RFP-PRO-GFP cells, GFP/RFP fluorescence | Matrix metalloproteinase-14 (Homo sapiens), P50281 | GFP/RFP ratio fluorescence, overnight; percent of plate control window, DMSO zero | GFP/RFP ratio change, % at 20 µM | actives 0.061% (n = 360,000) | AID 651647, 2012;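 active = GFP/RFP ratio change of at least 30% with cell ATP level not reduced by more than half and red fluorescence within 50% of control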; note: strong numbers were not always called active
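Read-out: GFP/RFP fluorescence ratio; Test system: RFP-PRO-GFP reporter HT1080 cells; Compound dosing: single-point 20 µM compound, 1% DMSO; Times: overnight compound exposure at 37 °C.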
CSC inhib – cancer stem cell viability inhibitors, primary screen, luminescence; cancer stem cell-like cells viability; inhibition, % at 7.5 µM; actives 1.1% (n = 300,000); AID 2717, 2010;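 active = mean at 75% or more and at least half the replicates too; inconclusive = mean and replicates disagree; tested in HMLE shEcad cells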;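 note: 0% = median of negative and 100% = median of positive control wells; the first replicate is given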
eIF4H inh retest – further read-out of eIF4H inh, marked with its call; inhibition, %; compound at 20 µM; confirmation average;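 mean of two retest wells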
PABP FP inh retest – recorded beside PABP FP inh, whose call it bears; inhibition, %; compound at 20 µM; confirmation repeats;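 mean of two retest wells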
MT1-MMP act inh RFP – recorded beside MT1-MMP act inh, whose call it bears; RFP signal change, %; measured here: RFP expression control read;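 0 = vehicle wells; hits needed this value within 50% of zero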
* = called active by the depositor; i = inactive; ? = inconclusive; · = no result given; & = joins results of further samples. Outcome played no part in choosing rows; any-hit rate near 2.9%.

Start of the listing, in advance:
SMILES	HIV Env fusion	UUG fidelity	eIF4H inh	PABP FP inh	Rce1 inhib	MT1-MMP act inh	MT1-MMP act inh RFP	CSC inhib	others
COc1cccc2sc(N(CCCN(C)C)C(=O)c3ccc(S(=O)(=O)N4CCc5ccccc5C4)cc3)nc12	-48	14	-5	-8	i	-4	-1	-1
COCCn1c(C)nnc1SCC(=O)NNC(=O)c1ccc(Br)cc1	-33	-19	6	1	i	3	4	·

Main list, from the first entry:
SMILES	HIV Env fusion	UUG fidelity	eIF4H inh	PABP FP inh	Rce1 inhib	MT1-MMP act inh	MT1-MMP act inh RFP	CSC inhib	others
COc1cccc2sc(N(CCCN(C)C)C(=O)c3ccc(S(=O)(=O)N4CCc5ccccc5C4)cc3)nc12	-48	14	-5	-8	i	-4	-1	-1
COCCn1c(C)nnc1SCC(=O)NNC(=O)c1ccc(Br)cc1	-33	-19	6	1	i	3	4	·
O=C(COc1ccc(Cl)cc1)NCc1nnc(SCC(=O)Nc2ccccc2)o1	-10	7	-4	7	i	2	0	-6
O=C(CN1CCN(c2ccc(F)cc2)CC1)Nc1ccccc1[N+](=O)[O-]	14	·	60*	40*	i	5	-3	-3	eIF4H inh retest=89*;PABP FP inh retest=68*
O=C(Nc1cccc(Cl)c1N1CCCC1)c1cccc(-c2cc3ccccc3oc2=O)c1	-3	·	-6	-2	i	-9	-7	84*
CN(C)c1ccc(NC(=O)Nc2nnc([C@H]3C[C@H](O)[C@@H](CO)O3)s2)cc1	3	-21	·	·	·	10	4	·
O=C(C1CCCCC1)N1CCN(c2ncccn2)CC1	·	·	-4	10	i	7	5	-7
Cc1ccc(S(=O)(=O)N2CCN(CC(=O)NC(=O)NCc3ccccc3)CC2)cc1C	14	-11	0	1	i	0	-2	-11
CCOC(=O)c1[nH]c(C)c(C(=O)Nc2ccc3c(c2)CCC3)c1C	·	-17	1	-9	i	7	3	-5
O=C(O)c1cnn(-c2ccccc2)c1C(F)(F)F	1	-15	-3	-4	i	4	3	-6
CCCCCN(C(=O)CCC(=O)OCC(=O)Nc1cccc(CC)c1)c1c(N)n(CCCC)c(=O)[nH]c1=O	-1	·	·	·	i	-1	0	-10
COc1ccc(S(=O)(=O)N(CC(=O)NN=C2CCN(C)CC2)c2cc(Cl)ccc2OC)cc1OC	7	-14	-21	1	·	3	13	-8
COc1cccc(CNC(=O)CCS(=O)(=O)c2ccccc2Cl)c1	·	-7	·	·	·	2	3	-3
O=C(Nc1cccc(F)c1)c1cc(-c2ccco2)nc2ccccc12	-5	·	·	·	i	-4	0	23
CN(Cc1nc(-c2ccncc2)no1)S(=O)(=O)c1ccc(Cl)cc1	30	-11	-10	7	i	-4	-9	-20
O=C(O)c1ccc(CNc2ccccc2C(=O)O)cc1	-49	-11	77*	77*	i	2	-1	12
Nc1c(-c2ccc(Cl)cc2)cnn1-c1cccc(C(F)(F)F)c1	·	-2	-4	0	i	4	-5	7
Cc1cn([C@H]2C[C@H](O)[C@@H](CNCc3ccc(CN(C)S(C)(=O)=O)o3)O2)c(=O)[nH]c1=O	-6	-2	·	·	·	2	4	·
O=S(=O)(Nc1cccc(F)c1)c1cccc2nsnc12	4	-3	-13	-6	i	2	6	-10
COC(=O)[C@]1(C)N[C@H](c2ccc(-c3ccc(Cl)c(Cl)c3)c(OC)c2)[C@@H]2C(=O)N(C)C(=O)[C@@H]21	14	-30	·	·	i	8	-6	69
COc1ccc(NC(=O)C(CC(=O)O)Cc2ccc(Br)cc2)cc1 (stereo not given)	-5	3	-6	34	i	-2	1	-7
COc1ccc(NC(=O)NNC(=O)c2ccc3ccccc3c2)cc1OC	?	-3	0	-4	i	3	-3	-8
Cc1ccc(NC(=O)CSC2=C(C#N)C(c3ccco3)C3=C(CCCC3=O)N2)cc1 (stereo not given)	14	0	2	-2	i	2	-1	24
CCCCCOC(=O)C1=C(C)Nc2nnnn2C1c1ccccc1Cl (stereo not given)	-6	·	6	-6	i	0	-5	40
O=C(CCNc1cccc(Cl)c1)c1cccs1	·	·	-4	-5	i	2	4	-6
CCOc1ccccc1CNC(=O)CCc1cn(CC)c2ccccc12	9	1	1	6	i	-1	1	-6
CC(=O)Nc1ccc(NC(=O)c2sc3nc4c(c(-c5ccc(C)cc5)c3c2N)CCC4)cc1	·	-24	0	12	i	-7	-6	-7
CC(C)C(=O)c1cc2c(cc1NC(=O)c1ccccc1)OCCO2	-19	1	0	-9	i	-6	0	7
CCOc1c(Br)cc(/C=C2\N=C(C)OC2=O)cc1Br	3	-10	-15	-6	i	-4	-2	-2
CNCCCOc1cccc(OC(C)C)c1	·	-23	-1	1	i	4	-3	1

7 entries from above, sorted by formula weight, falling:
SMILES	HIV Env fusion	UUG fidelity	eIF4H inh	PABP FP inh	Rce1 inhib	MT1-MMP act inh	MT1-MMP act inh RFP	CSC inhib	others
COC(=O)[C@]1(C)N[C@H](c2ccc(-c3ccc(Cl)c(Cl)c3)c(OC)c2)[C@@H]2C(=O)N(C)C(=O)[C@@H]21	14	-30	·	·	i	8	-6	69
CC(=O)Nc1ccc(NC(=O)c2sc3nc4c(c(-c5ccc(C)cc5)c3c2N)CCC4)cc1	·	-24	0	12	i	-7	-6	-7
Cc1ccc(NC(=O)CSC2=C(C#N)C(c3ccco3)C3=C(CCCC3=O)N2)cc1 (stereo not given)	14	0	2	-2	i	2	-1	24
COc1ccc(NC(=O)C(CC(=O)O)Cc2ccc(Br)cc2)cc1 (stereo not given)	-5	3	-6	34	i	-2	1	-7
O=S(=O)(Nc1cccc(F)c1)c1cccc2nsnc12	4	-3	-13	-6	i	2	6	-10
O=C(C1CCCCC1)N1CCN(c2ncccn2)CC1	·	·	-4	10	i	7	5	-7
O=C(O)c1cnn(-c2ccccc2)c1C(F)(F)F	1	-15	-3	-4	i	4	3	-6

Additional structures follow:
SMILES	HIV Env fusion	UUG fidelity	eIF4H inh	PABP FP inh	Rce1 inhib	MT1-MMP act inh	MT1-MMP act inh RFP	CSC inhib	others
COCc1ccc(C(=O)NC2CC(C)(C)Cc3c2cnn3-c2ccc(C)cc2)o1 (stereo not given)	·	-11	1	4	i	0	0	10
NS(=O)(=O)c1ccc(NC(=O)COC(=O)/C=C/c2ccc([N+](=O)[O-])cc2)cc1	7	-7	8	35	i	1	7	·
CN1C2C(Br)CCCCN2c2ccc(F)cc2S1(=O)=O (stereo not given)	1	1	-3	11	·	-6	-3	-10
O=C(NNS(=O)(=O)c1ccccc1)Nc1ccc(F)cc1	·	-15	72	8	i	1	5	·	eIF4H inh retest=10;PABP FP inh retest=3
C/C(=N/NC(=O)CN1CCN(Cc2ccccc2Cl)CC1)c1ccco1	-2	-11	-5	10	i	3	3	-6
O=S(CC(O)c1ccccc1)c1ccccc1 (stereo not given)	9	-14	·	·	·	-5	-1	·
COc1cccc(-c2c(C(=O)N/N=C(\C)c3ccc(Cl)s3)nnn2-c2nonc2N)c1	-5	-22	-14	7	i	-2	-11	7
Cc1cc(C)n(C(=O)COc2c(C)cccc2C)n1	0	-32	-14	21	·	7	6	-11
Cc1ccccc1Cn1cc(NC(=O)CSc2nc3c(c(C(F)(F)F)n2)CCc2ccccc2-3)cn1	43	·	2	-6	i	17	5	·
Cc1ccc(OCC(=O)N(Cc2cccc(F)c2)C2CCS(=O)(=O)C2)cc1 (stereo not given)	2	-10	·	·	i	5	4	-9
O=C(Nc1ccccc1Cl)c1sccc1-c1ccccc1	2	2	-11	-2	i	-5	2	-1
COc1ccc(NC(=O)CSc2nc3ccccc3c(=O)n2CCCC(=O)NCC2CCCO2)c(OC)c1 (stereo not given)	1	-8	1	-13	i	4	-4	10
CCC(=O)c1ccc(OCC(=O)OCC(=O)c2cc(C)n(C)c2C)cc1	-7	-15	3	5	i	1	2	-12
O=C(NCc1nc2ccccc2[nH]1)c1ccc(S(=O)(=O)N2CCOCC2)cc1	·	-3	-2	9	i	-2	4	-4
C=CCn1c(COc2cccc(C)c2)nnc1SCn1nnc2ccccc2c1=O	·	4	-2	5	i	0	1	-3
O=C(CNC(=O)c1ccccc1Br)N/N=C/c1ccc(O)cc1	-1	·	-7	4	i	-2	0	-8
CCOC(=O)C1CCN(C(=O)C(CCSC)NC(=O)COc2ccccc2)CC1 (stereo not given)	-5	-9	·	·	·	4	5	-1
CC(O)CNCCCOc1cccc(Oc2ccccc2)c1 (stereo not given)	-2	-1	14	2	i	-1	3	39
CCN(CC)CCN(C(=O)C1CCCCC1)c1nc2cc3c(cc2s1)OCO3	2	-6	-10	1	i	3	2	8
CCOc1ccc(NC(=O)CN2C(=O)CCSc3ccc(S(=O)(=O)N4CCCC4)cc32)cc1	-1	6	-17	-10	i	-3	-3	-8
O=C(OCC(=O)N1CCN(C(=O)c2ccco2)CC1)c1ccccc1	?	·	1	-10	i	-1	4	-5
Cc1ccc2cc(C#N)c(NCCNC(=S)NCCCN3CCOCC3)nc2c1	6	·	-18	-5	i	5	6	-10
C[C@H](CO)N1C[C@H](C)[C@@H](CN(C)S(=O)(=O)c2ccc3c(c2)OCCCO3)OCc2cn(nn2)CCCC1=O	10	-4&-6	·	·	·	4	5	·
CC(C)Cc1nnc(NC(=O)CCC(=O)NC2CCCC2)s1	-1	3	-2	-5	i	3	1	0
COCCNc1ncnc2c1nc1n2CCCC1	3	-21	-11	5	i	-2	2	1
CC12CCC(=O)N1C(C(=O)N1CCN(S(=O)(=O)c3ccc(Br)cc3Cl)CC1)CS2 (stereo not given)	9	-10	·	·	i	0	2	2
CC(C)CN1C(=O)C(=O)N(CC(=O)c2ccc3c(c2)OCO3)C1=O	-4	-28	·	·	i	3	1	-17
CCN(CC(=O)Nc1ccc(NC(C)=O)cc1)C(=O)C1CC(=O)N(c2ccc3c(c2)OCCO3)C1 (stereo not given)	-11	-16	·	·	·	2	9	·
CCCN(CC(=O)Nc1ccccc1C)CC(=O)Nc1ccc(Br)cc1F	13	-9	-1	-11	i	-4	-5	-2
CC(C)c1nnc(SCC(=O)N2CCN(C(=O)c3ccco3)CC2)n1N	10	·	2	16	i	-3	-2	-8
N#Cc1cccc(NC(=O)CCc2ccc(S(=O)(=O)N3CCOCC3)cc2)c1	-1	-4	·	·	·	1	1	-11
CN(C1CCCCC1)S(=O)(=O)c1ccc(NC(=O)Cn2nc(-c3ccc(F)cc3)ccc2=O)cc1	-5	·	-1	-14	i	8	-2	-21

Source: PubChem (several laboratories)
